High-throughput results (PubChem BioAssay)
Bead autofluor = flagged as autofluorescent in microsphere protease counterscreen; compound autofluorescence counterscreen, microsphere flow cytometry; active compounds read high; fluorescence intensity (no concentration beside the values); actives 3.1% (n = 360,000); AID 624483;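 active = at least 3 SD above the mean of all compounds, about 16000 in these data; inconclusive = too few beads counted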;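 note: 100 nL of 1 mM stock went into each well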
PrP UTR inh = suppresses PrP 5' UTR mRNA reporter expression. actives 0.35% (n = 340,000). inhibition, % (no concentration beside the values). cell-based PrP 5' UTR mRNA reporter, plate reader;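 active = every replicate at 50% or more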;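 note: 0 = median of the neutral control wells; tested in H4 reporter cells; numbers are from one replicate; inactives centre near -14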
Sa ugtP lethal = growth inhibition of S. aureus ugtP deletion strain | S. aureus RN4220 ugtP deletion, OD600 growth, 16 h; some inactives read as strong as hits | growth inhibition, % (concentration not given with the values) | actives 0.54% (n = 330,000) | AID 1259309;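 active = z-score under -3 and OD600 up to 0.15 on both plates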;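 note: plate controls were untreated wells for no effect and antibiotic for full effect; wells of about 80 µL received 100 nL stock; the first replicate is given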
BJeLR viability = kills HRASV12-expressing BJeLR cells; actives 0.17% (n = 300,000); BJeLR (HRASV12) viability, CellTiter-Glo ATP luminescence, 48 h; reference of the scale not given here; inhibition, % (concentration not given with the values);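 active = replicate mean above 50%; inconclusive = above 50% but judged a plate artefact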;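 note: 50 nL library stock added to about 25 µL; numbers are from one replicate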
Sa RN4220 lethal = S. aureus RN4220 growth inhibition | actives 0.33% (n = 330,000) | inhibition, % (no concentration beside the values) | AID 1259311 | OD600, 16 h;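 active = z-score of -3 or lower and OD600 up to 0.18 on both plates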;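 note: plate controls were untreated cells for no effect and reference antibiotic for full effect; stock transfer was 100 nL into about 80 µL; one replicate is shown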
Mtb hypoxia rep = reduces hypoxia-regulated biosensor signal in M. tuberculosis; fluorescence inhibition, % (concentration not given with the values); AID 1159583; actives 0.1% (n = 300,000); M. tuberculosis hypoxia-regulated fluorescent reporter, fluorescence;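 active = 35 to 45% if threefold the growth effect, above 45% if 1.5-fold the growth effect; inactive = the rest, general growth blockers included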;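 note: wells of about 50 µL received 100 nL stock; 0% = vehicle wells and 100% = reference inhibitor wells; whole bacteria with a GFP reporter of the hypoxia response; strong numbers were not always called active; many hits fall short of the cut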
Mtb hypoxia rep growth = recorded beside Mtb hypoxia rep, whose call it bears; growth inhibition, %; measured here: M. tuberculosis growth (absorbance);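 0% = vehicle and 100% = reference antibiotic; read after six days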
* = called active by the depositor; u = inconclusive; x = not tested or not shown. Outcome played no part in choosing rows. About 4.1% of those tested had a hit in this group.

SMILES	Bead autofluor	PrP UTR inh	Sa ugtP lethal	BJeLR viability	Sa RN4220 lethal	Mtb hypoxia rep	Mtb hypoxia rep growth
Cc1ccc(NC(=O)CCS(=O)(=O)c2cccc3nonc23)cc1Cl	3083	-3.9	-5.4	10.2	-0.9	16.9	9.6
O=C(O)C1CCCCC1C(=O)NCc1ccc2c(c1)OCO2 (stereo not given)	4928	-28.8	0.2	2.6	-0.9	-5.3	-8.4
Clc1ccc(C=Cc2ccccn2)c(Cl)c1	4160	-91.1	-5.7	x	2.4	4.4	-0.8
CC(C)NC(=O)NNC(=O)c1cc(COc2cc(Cl)cc(Cl)c2)on1	5526	0.3	0.3	1.5	3.8	18.3	13.4
Cc1ccc(NS(=O)(=O)c2c(C)nc3sccn3c2=O)cc1	4271	-10.9	4.7	4.1	3.6	3.7	-0.6
COC(=O)c1sc(SC)c2c1CC(C)(C)C/C2=N/O	5723	-41.3	x	-13.7	x	x	x
CCOC(=O)C1=C(COC(=O)COc2ccc(OCC)cc2)NC(=O)NC1C (stereo not given)	4452	-3.2	8.2	-4.5	6.7	6.6	-1.5
CN1CCN(C(=O)CCCOc2ccc(Cl)cc2Cl)CC1	17214*	-12.2	4.9	-9.4	3.0	7.3	2.0
CC1(C)CC(=O)C=C(NCCO)C1	2768	-10.7	12.8	2.8	3.1	12.7	5.9
CCN(CC)C(=O)c1ccc2nc(-c3ccccc3)c(-c3ccccc3)nc2c1	2554	-41.4	32.3	-7.1	4.9	1.5	8.8
COC(=O)c1sccc1NC(=O)CSc1ccccc1NC(=O)CNC(C)C	4269	-29.4	0.2	3.9	1.6	10.9	4.2
CN(C)C=Nc1cc(=O)n(Cc2ccccc2)c(=O)n1C	x	x	1.3	x	2.6	8.9	8.6
CCc1cccc(C)c1NC(=S)N1CCCC1C(=O)O (stereo not given)	2526	-35.7	1.9	4.3	5.9	7.2	7.2
CCOC(=O)CCC(=O)OCC(=O)NC(C)C1CC2CCC1C2 (stereo not given)	2927	-7.1	1.2	2.1	8.9	0.1	4.3
COCCNC(=O)c1c[nH]c2ccc(S(=O)(=O)Nc3ccc(F)cc3F)cc2c1=O	3392	-15.4	11.5	-27.0	2.1	7.6	2.7
Cc1ccc(C)c(OCCCNCc2ccccc2)c1	4400	-3.3	-2.5	-1.2	-0.6	0.2	4.0
O=C(Nc1nccs1)c1ccccc1Br	3755	-34.6	0.0	3.5	4.3	4.8	10.0
CC1CCN(C(=O)CSc2ccc(-c3cccnc3)nn2)CC1	4454	-7.7	9.6	-17.2	3.8	7.0	-5.3
O=C(CCN1CCN(Cc2ccccc2)CC1)Nc1ccc(OCc2ccccc2)cc1	17367*	-18.4	2.3	4.0	-1.9	5.9	2.3
Cc1cc(C(=O)COC(=O)C2=NN(c3ccccc3)C(=O)CC2)c(C)n1CC(F)(F)F	4643	-16.1	3.7	13.8	0.9	3.3	5.0
COc1cc(/C=C/C(=O)O)cc(S(=O)(=O)N2CCN(S(=O)(=O)c3ccc(Cl)cc3)CC2)c1OC	3857	-16.3	6.4	-11.8	-0.2	8.6	2.1
N#C/C(=C\c1ccccc1)C(=O)Nc1ccccn1	3958	x	2.3	12.6	1.3	-9.6	-7.8
c1ccc2c(CNCCN3CCOCC3)cccc2c1	2318	-17.5	3.5	0.1	-0.2	x	x
C[C@H](NC(=O)CCC(=O)N1C[C@H]2C[C@H](C1)c1cccc(=O)n1C2)c1ccccc1	4189	-5.7	9.7	-7.1	5.3	x	x
COc1ccc(Nc2nc(Cl)nc(NCc3ccco3)n2)cc1	3092	-18.3	-13.9	-6.1	-17.0	5.6	4.7
COc1ccc(S(=O)(=O)N2CCN(C(=O)c3cc4c(s3)CCCC4)CC2)cc1	6457	-16.6	8.1	x	0.5	9.1	8.6
C/C(=N/NS(=O)(=O)c1ccc(C)cc1)[C@H]1C[C@@H]1c1ccccc1	3642	-9.0	x	2.1	x	x	x
O=C(NCCc1ccccc1)C(=O)N/N=C/c1ccccc1C(F)(F)F	7021	-31.9	x	-10.3	x	x	x
O=C(N/N=C/c1cccnc1)c1ccccc1[N+](=O)[O-]	2141	-38.8	x	-8.7	x	x	x
O=C(NCc1ccco1)c1ccc(Oc2ccccc2)cc1	5740	-59.0	21.5	-1.2	1.5	13.2	15.1
Cc1ccccc1NS(=O)(=O)c1cc(C(=O)N2CCCC2)ccc1C	x	-2.0	-1.1	-6.0	5.7	6.3	15.6
COc1ccc(/C=C/C(=O)NCc2nc3ccccc3[nH]2)cc1OC	2627	-17.7	2.6	-4.3	2.7	0.9	5.1
COc1ccc(C(=O)CN2C(=O)NC3(CCCc4ccccc43)C2=O)cc1OC (stereo not given)	u	-14.2	-18.3	6.3	-5.7	-8.8	-1.5
NC(=S)N=Nc1c(O)n(CC(=O)Nc2ccccc2)c2ccccc12	3700	5.2	-1.0	0.9	3.2	-3.4	-1.1
COc1ccc(/C(O)=C2/C(=O)C(=O)N(CCCN(C)C)C2c2ccc(Cl)cc2)cc1OC (stereo not given)	3338	-20.4	x	-3.2	x	x	x
O=C(NCc1ccco1)c1nc2ncccn2n1	u	-0.8	-2.8	6.2	1.1	12.9	12.0
CN(C(=O)CO/N=C/c1ccc(OC(F)F)cc1)C1CCS(=O)(=O)C1 (stereo not given)	3261	-15.9	x	4.0	x	x	x
COc1ccc(C(=O)Nc2nc3ccccc3c(=O)[nH]2)cc1	8102	-14.5	2.8	-16.4	4.9	2.3	1.4
CCOC(=O)CN1C(=O)S/C(=C/c2cc(C)n(-c3ccccn3)c2C)C1=O	4294	-52.8	0.2	-7.5	-0.9	x	x
Cc1nnc(C)n1/N=C/c1cccc(Oc2ccccc2)c1	8114	-28.0	x	6.5	x	x	x
O=C(NC(=S)Nc1cccc2cccnc12)c1ccccc1	2813	-20.4	-23.8	2.1	8.6	-3.4	6.1
Cc1ccc(CCC(=O)Nc2ccc([N+](=O)[O-])cc2Cl)o1	3441	-16.2	5.5	-3.7	1.4	14.9	12.3
CC(=CC(=O)c1ccc(Cl)cc1)NCc1ccc2c(c1)OCO2	x	x	14.0	x	-3.1	-0.3	3.6
Cc1cc(C)nc(CCNC(=O)c2cc(COc3ccc(F)cc3F)on2)n1	2093	-21.0	-3.3	-4.2	4.8	5.9	-0.8
Cc1ccc(N2CCN(C(=O)c3cccs3)CC2)c(C)c1	3840	-16.7	x	4.5	x	x	x
Cc1ccc(NC(=O)COc2ccc(S(=O)(=O)N3CCOCC3)cc2)cc1	22684*	-4.3	-0.3	-6.4	-0.1	-5.6	-6.7
COc1ccc(CNC(=O)C[C@H]2C(=O)N(Cc3ccc(OC)cc3)C[C@@H]2Cc2ccccc2)cc1	3035	0.1	x	-9.1	x	x	x
CC(C)On1c(SC(C)C)nc2ccccc2c1=O	22943*	-5.4	8.8	8.7	7.5	10.6	8.3
CC1(C)CC(=O)C(C(c2cccnc2)C2C(=O)CC(C)(C)CC2=O)C(=O)C1	22323*	-21.9	2.1	19.4	-0.3	-0.1	3.9
CCc1ccc2[nH]c3nc(SCc4nnc(-c5ccccc5)o4)nnc3c2c1	4498	-27.9	8.1	0.2	4.2	10.6	10.2
CCC(C)NS(=O)(=O)c1ccc(F)c(C(=O)Nc2c(F)cc(F)cc2Br)c1 (stereo not given)	3983	-55.6	0.0	10.8	0.7	0.1	7.4
Cn1sc(NC(=O)c2ccc(Cl)cc2)nc1=O	9060	-45.5	1.6	6.0	3.4	3.5	5.3
CCC1(CC)CNC(=O)NC1=O	3731	3.6	2.9	x	1.5	11.3	8.4
O=C(c1ccco1)N1CCn2cccc2C1c1ccccc1 (stereo not given)	4718	6.0	3.8	1.5	17.1	8.4	11.3
Cc1cc(C(=O)Nc2ccc(Br)cn2)sc1C	5644	-92.8	0.3	x	9.4	20.1	15.2
COc1ccc(-c2csc(NC(=O)c3ccoc3C)n2)cc1	3209	-59.1	16.7	0.7	-3.8	8.1	11.6
Cc1ccc(-n2c(C)nnc2SCC(=O)N2CCc3ccccc3C2)cc1C	6991	-25.4	7.1	-11.6	11.3	9.0	6.4
COc1cc(SC)ccc1C(=O)N1CCCCCC1	3712	-5.6	3.7	-3.6	3.1	-0.2	5.7
Cc1ccc(SCCNC(=O)c2ccc(C)c([N+](=O)[O-])c2)cc1	3004	-12.4	-7.7	-1.3	-5.5	16.6	6.6
CCC(C)[C@H](N)C(=O)NC[C@H]1CC[C@H](C(=O)N[C@@H](Cc2ccccc2)C(=O)O)CC1 (stereo not given in full)	3370	-12.3	x	3.5	x	x	x

Seven structures from above, arranged by SMILES length, lowest first:
SMILES	Bead autofluor	PrP UTR inh	Sa ugtP lethal	BJeLR viability	Sa RN4220 lethal	Mtb hypoxia rep	Mtb hypoxia rep growth
CCC1(CC)CNC(=O)NC1=O	3731	3.6	2.9	x	1.5	11.3	8.4
COc1cc(SC)ccc1C(=O)N1CCCCCC1	3712	-5.6	3.7	-3.6	3.1	-0.2	5.7
Cn1sc(NC(=O)c2ccc(Cl)cc2)nc1=O	9060	-45.5	1.6	6.0	3.4	3.5	5.3
O=C(NC(=S)Nc1cccc2cccnc12)c1ccccc1	2813	-20.4	-23.8	2.1	8.6	-3.4	6.1
Cc1cc(C)nc(CCNC(=O)c2cc(COc3ccc(F)cc3F)on2)n1	2093	-21.0	-3.3	-4.2	4.8	5.9	-0.8
Cc1ccc(NC(=O)COc2ccc(S(=O)(=O)N3CCOCC3)cc2)cc1	22684*	-4.3	-0.3	-6.4	-0.1	-5.6	-6.7
CCC(C)NS(=O)(=O)c1ccc(F)c(C(=O)Nc2c(F)cc(F)cc2Br)c1 (stereo not given)	3983	-55.6	0.0	10.8	0.7	0.1	7.4

(more compounds)
SMILES	Bead autofluor	PrP UTR inh	Sa ugtP lethal	BJeLR viability	Sa RN4220 lethal	Mtb hypoxia rep	Mtb hypoxia rep growth
CCOc1cccc(-c2nnc3sc(-c4cccs4)nn23)c1	17165*	-10.7	-6.6	7.6	17.5	5.0	2.5
CCCN(CCC)C(=O)/C=C/c1cccc([N+](=O)[O-])c1	4346	-18.0	0.7	6.8	1.1	-3.8	4.3
CCOC(=O)c1[nH]c2ccccc2c1NC(=S)Nc1ccccc1C	6000	-15.5	7.5	8.3	1.3	-14.7	11.8
Cn1c(CC(=O)Nc2ccccc2F)nnc1SCC(=O)Nc1ccccc1Br	5008	-13.1	-0.8	-5.3	-0.1	14.9	4.1
N=c1ccn(Cc2ccc(Cl)cc2)cc1	2208	-14.7	3.5	11.7	-0.4	x	x
O=C1CCCN2N=C(SCC(=O)Nc3ccccc3C(F)(F)F)SC2=N1	5087	-22.0	8.6	-8.5	8.1	8.9	2.9
O=S(=O)(c1ccccc1)N1CN(Cc2ccc(F)cc2)c2nc3ccccc3nc21	4560	-18.9	13.2	-3.0	-0.7	9.1	4.0
COc1ccccc1NS(=O)(=O)c1cc(C(=O)NCC(c2ccco2)N(C)C)ccc1C (stereo not given)	6096	-17.5	5.4	7.1	2.7	5.0	1.0
CCOC(=O)CN1C(=O)C(=O)N(Cc2c(F)cccc2Cl)C1=O	3668	-10.9	2.4	4.3	1.0	8.4	6.1
COc1ccc(-c2nnc(SCc3nnc(-c4ccccc4)o3)n2-c2ccccc2)cc1	8897	-3.6	-4.9	10.9	6.3	-2.4	10.1
CCOC(=O)c1c(NC(=O)Cn2cnc3sc(C)c(-c4ccccc4)c3c2=O)sc(C)c1C	2823	-20.4	4.4	-5.9	0.8	7.0	8.3
Brc1ccc(-c2nnc3sc(CNC4CCCC4)cn23)cc1	4391	-12.8	5.0	-12.7	6.6	2.2	8.2
CC(OC(=O)c1ccc(NS(=O)(=O)c2cccs2)cc1)C(=O)N(C)C1CCCCC1 (stereo not given)	2554	-5.8	5.5	8.6	7.0	3.6	7.8
Nc1cc(=O)[nH]c(SCC(=O)Nc2ccccc2-c2ccccc2)n1	4734	-28.2	5.8	-9.3	10.1	-6.7	4.8
CCOC(=O)C1=C(COC(=O)CNC(=O)c2ccc(C)cc2)NC(=O)NC1C (stereo not given)	5496	-9.9	-7.0	6.3	-1.9	-7.1	5.8
O=C(Nc1ccc(Br)cc1)Nc1cnccn1	5627	-46.3	-2.9	-16.9	0.6	9.0	10.3
CCCCNC(=O)c1cn(CC)c2cc(N3CCN(C)CC3)c(F)cc2c1=O	6231	x	63.2	-1.3	13.4	9.4	4.0
COc1ccc(CC(=O)NNS(=O)(=O)c2ccc([N+](=O)[O-])cc2)cc1OC	3066	-18.6	9.9	1.1	8.1	6.4	2.1
